Assay outcomes (PubChem)
PINK1 expr mod = modulators of PINK1 expression; PINK1 immunofluorescence, high-content cytometry, 24 h; Potency, µM (titrated, usually from 76.6 µM), for the others: at the top dose activation (PINK1 increase), actives largely listed as activators; actives 0.2% (n = 410,000); AID 624263; active = well fitted activation curve with a large enough effect; inconclusive = small, poorly fitted or top-dose-only effect; inactive = flat fitted curve, though single readings scatter; cell line not stated here;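 note: potency is the fitted concentration of half-maximal effect; % of control where 0% means no effect; nearly all actives have a fitted effect of over 65% in size; a mitochondrial uncoupler was the plate control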
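A stable cell line was treated with compounds at 5 concentrations for 24 hours, with CCCP as control. PINK1 levels and mitochondrial localization were measured by immunofluorescence with mitochondrial, cell and nuclear markers after fixation, read by laser-scanning cytometry.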
Sfp PPTase inh = inhibitors of Bacillus subtilis Sfp phosphopantetheinyl transferase. Biochemical Sfp PPTase activity, qHTS. Potency, µM, for inactives: max response, negative = inhibition, actives largely listed as inhibitors. actives 3.5% (n = 310,000). Q9F4F7. AID 1490; active = well fitted inhibition curve with a large enough effect; inconclusive = small, poorly fitted or top-dose-only effect, or another doubt; inactive = no such curve, though single readings can be large or run the other way;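 note: the enzyme is Sfp with the accession as filed and its product quenches rhodamine fluorescence; potency is the fitted concentration of half-maximal effect; 0% = enzyme reaction without inhibitor and -100% = no enzyme wells; top concentration of the series not given in the record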
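Step 1, compound plus 15 nM Sfp-PPTase, 15 min, room temperature. Step 2, add rhodamine-CoA (5 uM) and BHQ-2-YbbR (12.5 uM). Step 3, read 525/598 nm fluorescence at 0 and 30 min.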
TRPV1 potentiator = human TRPV1 potentiation | Q8NER1 | TRPV1-expressing cells, Fluo-8 calcium influx, capsaicin EC20 potentiation; host cell line not named in the record; control for the full effect not named in the record | potentiation, % at 8.33 µM | actives 0.02% (n = 320,000) | AID 540277; active means potentiation above 80%; inconclusive means 30% to 80%; inactive means below 30%; note: 0% is about no effect
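Fluo-8 calcium influx in TRPV1-expressing cells, kinetic read (ex 480/em 520 nm). Compound added and read 3 min for agonist activity, followed by capsaicin at EC20 final and 2 min further read for enhancement.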
D2 agonist = activates the human D2 dopamine receptor; P14416; DiscoveRx PathHunter D2 beta-arrestin, luminescence, 90 min; 100% = 57 uM dopamine signal; activation, % (no concentration beside the values); actives 0.084% (n = 360,000); AID 624465; in the data active = activation above about 40%; inconclusive = about 15% to 40%; inactive = below about 15%; note: compound concentration not given in the record; the text of the record calls up to 30% inactive
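Agonist mode: compounds alone added to overnight-plated D2 PathHunter cells for 90 min at 37 C, with 57 uM final dopamine (EC100) defining full response. Beta-arrestin recruitment detected by chemiluminescent reagent, read after 1 h at ambient temperature.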
CtBP-E1A blk = blocks the CtBP interaction with E1A; AlphaScreen GST-E1A/His-CtBP binding, 1536-well; hits give low values; control for the full effect not named in the record; activity change, % (no concentration beside the values); actives 0.49% (n = 340,000); AID 651724; in the data active means activity change below about -65%; inconclusive means about -30% to -65%; inactive means above about -30%; note: % is set by controls: 0 for no effect and ±100 for the full control effect; compound concentration not given in the record
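Protein mix (5X: 125 nM each GST-E1A, His-CtBP) was incubated with pinned compound 2 h at 37 deg C in dark, in 50 mM Tris pH 8.0 buffer with 300 mM NaCl. Glutathione donor and nickel acceptor beads followed; AlphaScreen signal read after 1 h.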
D2 PAM = human D2 receptor positive allosteric modulation. P14416. DiscoveRx D2 beta-arrestin cells, luminescence, 90 min; 100% = 57 uM dopamine signal. potentiation, % (test concentration not listed). actives 0.23% (n = 360,000); active = potentiation of 50% or more; inconclusive = 30% to 50%; inactive = 30% or less;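 note: compound concentration not given in the record; tested on top of an EC20 dose of dopamine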
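PathHunter beta-arrestin assay in DiscoveRx D2 cells. Compounds were added with an EC20 of dopamine (50 nM final) for 90 min at 37 deg C. Luminescence was read 1 h after detection reagent, with 57 uM dopamine as the EC100 control.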
Six1-Eya2 inh = blocks human Six1 binding to Eya2; activity change, % (test concentration not listed); actives 0.56% (n = 360,000); AlphaScreen GST-Six1/His-Eya2 binding, biochemical; hits give low values; control for the full effect not named in the record; in the data active = activity change below about -65%; inconclusive = about -30% to -65%; inactive = above about -30%; note: % is set by controls: 0 for no effect and ±100 for the full control effect; compound concentration not given in the record
Target sequence (O00167 whole entry, looked up): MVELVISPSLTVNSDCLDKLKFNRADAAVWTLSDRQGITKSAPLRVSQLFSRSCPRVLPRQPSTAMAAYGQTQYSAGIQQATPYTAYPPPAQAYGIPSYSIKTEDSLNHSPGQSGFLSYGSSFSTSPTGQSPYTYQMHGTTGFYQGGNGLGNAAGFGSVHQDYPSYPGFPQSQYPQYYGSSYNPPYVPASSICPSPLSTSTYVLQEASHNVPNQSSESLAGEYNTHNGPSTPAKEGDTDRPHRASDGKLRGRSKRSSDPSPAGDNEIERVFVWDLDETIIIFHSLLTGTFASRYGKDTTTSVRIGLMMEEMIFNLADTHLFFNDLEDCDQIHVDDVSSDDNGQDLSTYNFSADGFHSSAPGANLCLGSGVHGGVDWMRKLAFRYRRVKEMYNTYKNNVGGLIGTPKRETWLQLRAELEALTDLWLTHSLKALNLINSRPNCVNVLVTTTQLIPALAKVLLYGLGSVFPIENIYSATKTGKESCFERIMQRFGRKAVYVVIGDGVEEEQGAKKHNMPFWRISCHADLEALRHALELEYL
Target sequence (Q15475 whole entry, looked up): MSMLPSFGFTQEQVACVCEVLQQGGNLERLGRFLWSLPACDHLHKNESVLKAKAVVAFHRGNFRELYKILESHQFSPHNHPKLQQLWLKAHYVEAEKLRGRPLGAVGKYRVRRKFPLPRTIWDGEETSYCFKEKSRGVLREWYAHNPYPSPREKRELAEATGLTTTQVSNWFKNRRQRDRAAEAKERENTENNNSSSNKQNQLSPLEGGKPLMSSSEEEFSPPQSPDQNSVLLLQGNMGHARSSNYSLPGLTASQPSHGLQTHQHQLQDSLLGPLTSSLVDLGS
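Six1/Eya2 binding was read as AlphaScreen signal after compounds were pinned into GST-Six1 plus His-tagged Eya2 (5X stock 250/500 nM) in pH 8.0 Tris/NaCl/TCEP buffer, beads added, then incubated 1 h, 37 C, dark.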
The depositor's hits bear a star; ? = inconclusive; . = not tested or not shown; [ ] = dose if it differs, or a comment. An unsorted share of the library; 3.7% or so of the library scored in one or more.

SMILES	PINK1 expr mod	Sfp PPTase inh	TRPV1 potentiator	D2 agonist	CtBP-E1A blk	D2 PAM	Six1-Eya2 inh
COc1ccccc1C(=O)Nc1ccc(OCC(=O)N2CCCCC2)cc1	-1.2%	.	-10	0.0	0	0	-4
Cc1cc(C)nc(N(C#N)CN2C(=O)c3ccccc3C2=O)n1	-3.7%[38.3 µM]	89µM*	6	-3.9	-3	-12	-1
COc1ccc(OCC(=O)N/N=C\c2ccco2)cc1	-0.1%	5%	1	3.0	.	3	-11
CC1(C(=O)NS(=O)(=O)c2cccc(OC(F)F)c2)CCN1C(=O)C1CCCCC1 (stereo not given)	0.7%	.	.	-3.9	5	-8	0
Clc1ccc(CCNc2nc3ccccc3s2)cc1	4.6%	19%	-20	-1.7	9	-16	6
N#Cc1ccc(C(=O)N2CCC3CC2c2cc(-c4ccccc4)ccc23)cc1 (stereo not given)	0.1%	.	.	-0.6	-13	.	-10
CCOc1ccc2nc(CN3CCN(Cc4ccsc4)C(CCO)C3)ccc2c1 (stereo not given)	1.1%	-4%	7	1.3	-9	-19	-4
O=C(Nc1ccc(O)cc1)c1c(O)c2c([nH]c1=O)CCCC2	7.6%	9%	-28	-2.8	-20	0	7
COc1ccc(NC(=O)CSc2nc3ccccc3c(=O)n2CCCO)cn1	1.7%	.	6	-1.3	-5	-2	1
O=C(CCN1C(=O)C2C3C=CC(C3)C2C1=O)N1CCN(c2ccccc2Cl)CC1 (stereo not given)	1.5%	12%	-1	-3.5	0	-25	-1
CCOC(=O)N1CCC(NC(=O)c2ccc3c(c2)N=C(C)c2c(C)ccc(C)c2S3)CC1	-0.4%	-2%	0	0.9	.	-9	-10
Cc1ccc(S(=O)(=O)NNC(=O)c2cc(C)c(C)cc2N)cc1	-4.4%	.	.	-7.9	-5	-10	3
O=C(O)c1ccc(Cl)c(N2C(=O)Nc3ccccc3N2O)c1	0.1%	-3%	-7	-2.8	.	-1	0
CCOc1ccc2c(=O)c(Oc3ccccc3)c(C)oc2c1	0.2%	17%	-13	0.1	-2	13	12
Cc1ccc(CNC(=O)CNS(=O)(=O)c2ccc3c(c2)C(C)(C)C(=O)N3C)cc1	0.1%	6%	-5	-4.8	6	-3	8
CCOc1ccc(C(C(=O)NCCOC)N(CCOC)C(=O)CCC(=O)Nc2ccccn2)cc1 (stereo not given)	-1.8%	16%	-3	-1.4	4	-5	-7
COc1ccc2oc(C(=O)N(C)CCOc3ccccc3)c(C)c2c1	-1.1%	8%	-11	-0.4	11	2	6
Cc1cccc(NS(=O)(=O)c2cc(C(=O)OC(C)C(=O)NCc3ccc4c(c3)OCO4)ccc2C)c1 (stereo not given)	0.2%	22%	-5	0.3	0	-4	-15
O=C1C(Cl)=C(Nc2ccccc2O)C(=O)N1c1ccccc1	-3.0%	22µM*	-15	-0.5	-6	9	-10
Cc1ccccc1C(=O)NC(C)c1ccc2c(c1)CCCC2 (stereo not given)	1.1%	0%	.	2.3	-3	22	13
O=C(N/N=C/c1ccccc1OC(F)F)NC1CCCCC1	2.5%	0%	1	-2.2	1	-1	4
Cc1ccc(NC(=O)c2ncn(CC(=O)NCC(C)c3ccccc3)n2)cc1C (stereo not given)	-1.2%	.	.	1.9	0	.	3
S=c1nc(-c2cc(Cl)cc(Cl)c2)[nH][nH]1	4.2%	40µM*	0	5.7	-1	-14	1
Cc1noc(C)c1C(=O)NC(Cc1c[nH]c2ccccc12)C(=O)O (stereo not given)	-1.4%	.	.	-2.3	5	-2	-1
CCn1c2ccccc2c2nc3cc(OC)c(OC)cc3nc21	0.0%	12%	-18	1.4	25	-1	42
COc1ccc(C(C#N)C2(C)OCCO2)cc1OC (stereo not given)	.	10%	-2	-3.7	10	1	2
Cn1c(OCc2ccco2)nc2c1c(=O)n(Cc1ccc(Cl)c(Cl)c1)c(=O)n2C	-1.4%	0%	8	-4.1	2	11	-8
CCOC(=O)c1[nH]c2ccccc2c1N=CN(C)C	1.0%	.	.	4.5	-1	1	6
CCCNc1cc(C)oc(=O)c1C(=O)CC	-0.5%	15%	4	-4.2	2	-2	1
COc1ccccc1-c1cc(C(=O)Nc2cc(C)on2)no1	21%[38.3 µM]	20%	-8	-2.7	3	-17	2
CCOc1ccc(/C=N/NC(=O)c2nnn(-c3nonc3N)c2CN(C)C2CCCCC2)cc1	7.8%	17%	-4	-2.7	3	-21	-1
COC(=O)c1nn2c(C(F)(F)F)cc(-c3ccc(Br)o3)nc2c1Br	?	6%	-7	-0.3	-12	-9	-16
COc1ccc(C(C#N)N2CCOCC2)cc1 (stereo not given)	-1.0%	13%	-7	-2.5	3	-6	10
COc1ccc(NC(=O)C2CC(=O)N(CCc3ccc(F)cc3)C2)c(OC)c1 (stereo not given)	0.4%	-3%	-5	-2.3	-1	-3	8
O=C(c1c(F)cccc1Cl)N1CCN(c2ccccn2)CC1	-0.8%	3%	17	-0.4	21	0	13
O=C(CSc1ccc2nnc(-c3ccccn3)n2n1)Nc1cccc(F)c1	-2.0%	9%	4	-1.3	?	15	?
Cc1nn(C)c(C(=O)NC2C3CC4CC(C3)CC2C4)c1Cl (stereo not given)	7.6%	6%	-5	-3.3	5	-9	7
CNC(=O)COc1coc(CN2CCN(c3ccccc3F)CC2)cc1=O	-0.7%	9%	12	-3.7	1	-5	0
O=C(O)/C=C/C(=O)Nc1ccc(SC(F)(F)F)cc1	-0.5%	8%	8	-4.1	5	2	8
CC(CCc1ccccc1)NS(=O)(=O)c1ccccc1F (stereo not given)	-1.0%	3%	2	1.2	-1	-4	-5
COc1ccc(NS(=O)(=O)c2cccc(NC(=O)CCC(=O)c3cccs3)c2)cc1	-3.9%	10%	8	1.3	4	7	-8
CC(C)Oc1cc(NC(=O)CS(=O)CC(=O)N(C)C)c(Cl)cc1Cl (stereo not given)	1.2%	-14%	-3	-2.9	-1	-3	3
CC(=O)Nc1ccc(Nc2cc(C)nc3c(-c4ccc(Cl)cc4)cnn23)cc1	16%	3%	5	6.4	8	5	3
O=C(CCC(=O)c1cccs1)NCC(=O)Nc1ccc(F)c(F)c1F	2.8%	5%	-7	-2.8	4	-6	-5
CCOC(=O)C1=C(C)N=c2sc(=C(C)C)c(=O)n2C1c1ccc(N(C)C)cc1 (stereo not given)	1.6%[38.3 µM]	.	.	-2.0	-13	-8	-1
CC1CCN(S(=O)(=O)c2ccc3c(c2)N(CC(=O)NCCN2C(C)CCCC2C)C(=O)CS3)CC1 (stereo not given)	-0.6%	-2%	0	0.5	5	-26	2
COc1ccc(S(=O)(=O)N2CCC(Cc3ccccc3)CC2)cc1C(N)=O	8.0%	-3%	-1	-4.3	11	-13	-2
Cc1nc2cc(-n3ccc(=O)cc3)ccc2n1-c1ccccc1	.	-14%	-3	-1.2	7	-11	1
CC(C)c1cc(N2CCOCC2)n2ncc(-c3ccccc3)c2n1	0.7%	11%	-9	0.1	18	-5	20
OCC(O)C1OC(Nc2ccc(Cl)cc2)C(O)C1O (stereo not given)	0.9%	10%	-12	-1.1	-1	-8	3
COC(=O)C1=C(C)NC(C)=C(C(=O)OC)C1c1cc2cc(C)ccc2[nH]c1=O	1.6%	-15%	-7	-0.1	-14	-10	1
O=c1c(Cl)c(N2CCCCC2)cnn1-c1nc2ccccc2[nH]1	-0.5%	11%	8	0.2	8	-1	6
COc1ccc(-c2nc(CN3CCC(C(=O)NC4CC4)CC3)c(C)o2)cc1OC	-0.6%	24%	-1	-7.4	6	-2	2
O=C(CNC(=O)c1ccco1)N/N=C/c1ccc(C(=O)O)cc1	1.9%	5%	0	-3.9	4	4	-2
OC(c1cccc(CN2CCCCC2)c1)c1ncc(-c2cccc3ccccc23)[nH]1 (stereo not given)	12%	.	.	3.3	-9	-15	-21
O=C(O)c1cc(O)ccc1NC(=O)C(c1ccccc1)c1ccccc1	0.9%	11%	14	-4.3	.	6	0
O=C(c1cccc(C(F)(F)F)c1)N1CCN(S(=O)(=O)c2ccc(Cl)s2)CC1	0.4%	13%	8	-2.7	3	-9	-2
Cc1ccc2c(c1)c1c3n2CCN(CCC#N)C3CCC1 (stereo not given)	-1.2%	.	.	1.2	2	8	-1
CC1C(=NO)C(C)C(c2ccccc2)NC1c1ccccc1 (stereo not given)	0.5%[38.3 µM]	-2%	11	-1.3	4	-2	-1
O=C1CS/C(=N/N=C/c2ccc(OS(=O)(=O)c3ccccc3)cc2)N1	2.9%	13%	-3	1.0	6	-1	-4

Nothing new here: an excerpt of the list.
SMILES	PINK1 expr mod	Sfp PPTase inh	TRPV1 potentiator	D2 agonist	CtBP-E1A blk	D2 PAM	Six1-Eya2 inh
CC1CCN(S(=O)(=O)c2ccc3c(c2)N(CC(=O)NCCN2C(C)CCCC2C)C(=O)CS3)CC1 (stereo not given)	-0.6%	-2%	0	0.5	5	-26	2
COc1ccc(S(=O)(=O)N2CCC(Cc3ccccc3)CC2)cc1C(N)=O	8.0%	-3%	-1	-4.3	11	-13	-2
Cc1nc2cc(-n3ccc(=O)cc3)ccc2n1-c1ccccc1	.	-14%	-3	-1.2	7	-11	1
CC(C)c1cc(N2CCOCC2)n2ncc(-c3ccccc3)c2n1	0.7%	11%	-9	0.1	18	-5	20
OCC(O)C1OC(Nc2ccc(Cl)cc2)C(O)C1O (stereo not given)	0.9%	10%	-12	-1.1	-1	-8	3

The list goes on.
SMILES	PINK1 expr mod	Sfp PPTase inh	TRPV1 potentiator	D2 agonist	CtBP-E1A blk	D2 PAM	Six1-Eya2 inh
Cc1cccc(NC(=O)COC(=O)CN2C(=O)c3ccccc3C2=O)c1	0.2%	.	.	-6.2	-1	-6	-11
COC(=O)c1ccc(S(=O)(=O)NCc2ccco2)n1C	1.1%	0%	-6	-2.7	5	-1	4
CSc1ccccc1C(=O)Nc1ncn[nH]1	0.3%	56µM*	13	0.5	.	-17	-13
O=C(NC1CCCC1)C(c1cccnc1)N(Cc1ccc(F)cc1)C(=O)c1csnn1 (stereo not given)	-4.1%	19%	4	-3.0	2	-3	7
Cc1ccc2c(c1)N(C(=O)CCC(=O)NCCN1CCOCC1)CCO2	2.3%	13%	-3	-0.8	18	-6	15
Cc1ccc(NC(=O)CSc2nnc3c(n2)[nH]c2ccccc23)cc1	0.4%	14%	7	-4.5	3	-6	5
CC(=O)c1ccc(NC(=S)N2CCN(C(=S)Nc3ccc(C(C)=O)cc3)C(C)C2)cc1 (stereo not given)	0.0%	?	0	-1.4	0	4	-18
O=C(COc1cc(F)ccc1[N+](=O)[O-])NCCN1C(=O)CSC1=O	0.5%	.	.	0.6	0	19	6
